# Sfp inh – qHTS Assay for Inhibitors of Bacillus subtilis Sfp phosphopantetheinyl transferase (PPTase) | Biochemical Sfp PPTase activity, qHTS | Potency, µM, for the others: max response, negative = inhibition, most hits filed as inhibitors | 310,000 compounds, 3.5% hits; active = well fitted inhibition curve with a large enough effect; inconclusive = small, poorly fitted or top-dose-only effect, or another doubt; inactive = no such curve, though single readings can be large or run the other way;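 note: the enzyme is Sfp with the accession as filed and its product quenches rhodamine fluorescence; potency is the fitted concentration of half-maximal effect; 0% = enzyme reaction without inhibitor and -100% = no enzyme wells; top concentration of the series not given in the record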
#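 Reaction rates are the 30-min fluorescence difference (ex 525, em 598 nm) in wells containing 15 nM Sfp, 5 uM rhodamine-CoA and 12.5 uM BHQ-2-YbbR at pH 7.6 with 10 mM MgCl2.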
# Menin MLL FP FL – qHTS Assay for Inhibitors Targeting the Menin-MLL Interaction in MLL Related Leukemias: Competition With Fluorescein Labeled MLL-derived Peptide | 290,000 tested, under 10 active | FP activity change, % at 61.4 µM | Fluorescence polarization, fluorescein-MLL peptide displacement from menin; inconclusive = falling polarisation curve, or a change in total fluorescence; inactive = total fluorescence flat and polarisation flat or rising; no compound was filed as active; the % refers to the polarisation; negative = inhibition;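 note: % of control where 0% means no effect; inhibitors lower the polarisation; unlabelled MLL peptide was the positive control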
# gsp ag – qHTS for Agonist of gsp, the Etiologic Mutation Responsible for Fibrous Dysplasia/McCune-Albright Syndrome: qHTS; gsp mutant cells, cAMP HTRF, 30 min; control for the full effect not named in the record; Potency, µM (series often up to 76.9 µM), without a hit: at the top dose activation (cAMP increase), hits mostly activators; 340,000 compounds, 0.13% hits; active = well fitted activation curve with a large enough effect; inconclusive = small, poorly fitted or top-dose-only effect, or another doubt; inactive = no such curve, though single readings can be large or run the other way; cell line not stated here;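 note: phosphodiesterase inhibitor Ro 20-1724 added with compounds to block cAMP breakdown; potency is the fitted concentration of half-maximal effect; nearly all actives have a fitted effect of over 60% in size; about a fifth of the inactives were tested at one dose only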
#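 Cells in DMEM/10% FBS with G418 were pretreated with compounds in DMSO plus […] (300 uM stock) for 30 min at 37C. cAMP was measured by HTRF (cAMP-d2 plus anti-cAMP antibody-K) after 30 min at room temperature.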
# gsp antag – qHTS for Antagonists of gsp, the Etiologic Mutation Responsible for Fibrous Dysplasia/McCune-Albright Syndrome: qHTS. gsp-mutant cells, cAMP HTRF, 30 min; control for the full effect not named in the record. Potency, µM (series often up to 76.9 µM), for the others: top-dose activity change, negative = inhibition, usual class: inhibitors. 340,000 compounds, 0.4% hits; active = falling curve of any shape with a large fitted effect; inconclusive = falling curve, mostly with a smaller effect; inactive = flat or rising curve; cell line not stated here;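 note: intracellular cAMP measured with PDE inhibitor Ro 20-1724 present during compound exposure; potency is the fitted concentration of half-maximal effect; % is set by controls: 0 for no effect and ±100 for the full control effect; nearly all actives have a fitted effect of over 65% in size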
#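 Measurement of cellular cAMP by homogeneous time-resolved fluorescence following a 30 min compound exposure at 37C. The PDE inhibitor […] was present throughout; the assay buffer was DPBS with 0.05% BSA and 0.005% Tween 20.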
# ClpP mod – qHTS Assay for Activators of ClpP; purified B. subtilis ClpP, FRET peptide cleavage, 20 min; 340,000 compounds, 1.9% hits; Potency, µM (doses to about 57.5 µM), inactives show top-dose activity change, negative = active; active = well fitted falling curve with a large enough effect; inconclusive = small, poorly fitted or top-dose-only effect; inactive = no such curve, though single readings can be large or run the other way; note: potency is the fitted concentration of half-maximal effect; the source files actives as falling curves though it sought activators and does not explain the sign; nearly all actives have a fitted effect of over 65% in size; many hits overshoot -100%
# Target sequence (P80244 whole entry, looked up): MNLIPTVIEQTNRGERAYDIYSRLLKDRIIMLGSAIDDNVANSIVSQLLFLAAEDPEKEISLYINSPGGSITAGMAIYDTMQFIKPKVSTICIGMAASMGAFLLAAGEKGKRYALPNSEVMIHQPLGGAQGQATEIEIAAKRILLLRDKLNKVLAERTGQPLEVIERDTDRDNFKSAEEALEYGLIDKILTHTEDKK
#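 Buffer: 100 mM Tris/HCl pH8, 100 mM KCl, 0.05% low protease BSA, 2.5% glycerol, 0.01% Tween-20. ClpP 10 microg/mL final; 20 min RT; delta FRET normalized to ADEP and DMSO controls.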
# TRPV1 PAM – HTS Assay for Compounds that Act as Potentiators of the Vanilloid Receptor 1; TRPV1-expressing cells, Fluo-8 calcium influx, capsaicin EC20 potentiation; host cell line not named in the record; control for the full effect not named in the record; potentiation, % at 8.33 µM; AID 540277, 2011; 320,000 compounds, 0.02% hits; Transient receptor potential cation channel subfamily V member 1 (Homo sapiens), Q8NER1; active means potentiation above 80%; inconclusive means 30% to 80%; inactive means below 30%; note: 0% is about no effect
# Target sequence (Q8NER1 whole entry, looked up): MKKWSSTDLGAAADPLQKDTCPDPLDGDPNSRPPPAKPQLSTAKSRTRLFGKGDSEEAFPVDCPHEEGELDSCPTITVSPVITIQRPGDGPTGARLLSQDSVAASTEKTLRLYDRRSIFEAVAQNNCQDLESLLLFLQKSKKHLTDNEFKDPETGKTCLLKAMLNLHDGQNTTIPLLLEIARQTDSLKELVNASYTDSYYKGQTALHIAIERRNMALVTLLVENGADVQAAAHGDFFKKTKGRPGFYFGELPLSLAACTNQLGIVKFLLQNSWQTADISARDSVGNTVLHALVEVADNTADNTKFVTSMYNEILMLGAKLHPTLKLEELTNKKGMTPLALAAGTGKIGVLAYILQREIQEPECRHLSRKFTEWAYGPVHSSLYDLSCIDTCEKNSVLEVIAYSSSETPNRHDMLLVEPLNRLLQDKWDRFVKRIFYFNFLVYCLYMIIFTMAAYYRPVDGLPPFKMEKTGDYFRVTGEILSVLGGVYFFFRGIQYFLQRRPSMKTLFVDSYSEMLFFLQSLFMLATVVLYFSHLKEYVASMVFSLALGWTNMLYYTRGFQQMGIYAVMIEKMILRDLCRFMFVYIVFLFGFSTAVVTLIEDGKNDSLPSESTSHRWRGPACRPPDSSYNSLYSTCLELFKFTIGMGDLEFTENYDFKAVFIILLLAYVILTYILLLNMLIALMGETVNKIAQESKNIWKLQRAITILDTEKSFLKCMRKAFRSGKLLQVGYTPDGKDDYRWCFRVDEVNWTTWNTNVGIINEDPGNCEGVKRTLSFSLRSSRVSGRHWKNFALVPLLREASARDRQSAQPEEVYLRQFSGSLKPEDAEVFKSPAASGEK
#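 TRPV1-expressing cells were cultured overnight at 35.5C and loaded with Fluo-8 calcium dye for 40 to 90 min at room temperature. After a 10 s baseline, compound was added and calcium influx was read kinetically for 3 min (ex 480/em 520 nm).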
# D2 PAM – Beta-Arrestin HTS for Positive Allosteric Modulators of the Human D2 Dopamine Receptor: Potentiators; D(2) dopamine receptor (Homo sapiens), P14416; DiscoveRx D2 beta-arrestin cells, luminescence, 90 min; 100% = 57 uM dopamine signal; potentiation, % (test concentration not listed); 360,000 compounds, 0.23% hits; active = potentiation of 50% or more; inconclusive = 30% to 50%; inactive = 30% or less;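 note: compound concentration not given in the record; tested on top of an EC20 dose of dopamine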
#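 D2 cells co-treated with compound plus 50 nM dopamine (EC20) for 90 min at 37 deg C to detect potentiation. Beta-arrestin recruitment was read as enzyme-fragment luminescence after 1 h at ambient temperature. Full response was set by 57 uM dopamine.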
# Active calls of the source: *; ? = inconclusive; . = not tested or not shown; [ ] = remark or other dose.
SMILES,Sfp inh,Menin MLL FP FL,gsp ag,gsp antag,ClpP mod,TRPV1 PAM,D2 PAM
COc1cc(S(=O)(=O)Nc2cccc3cn[nH]c23)c(OC)cc1C,6.7%,.,?,15.6%,1.1%,-12.1,4.0
COc1ccc(CN(C(=O)CCC(=O)N2CCCCC2)c2nccs2)cc1OC,0.9%,-3.7,?,-4.8%,.,-10.6,-4.3
COc1cccc(NC(=O)Nc2cc(C(=O)NC(C)C)ccc2N2CC3CC(C2)c2cccc(=O)n2C3)c1 (stereo unspecified),24.2%,5.5,20.2%,-19.4%,-1.6%,-4.2,-3.7
Cc1ccc(S(=O)(=O)N2CCN(C(=O)COC(=O)CCOc3ccccc3C)CC2)c(C)c1,.,.,-5.1%,1.1%,-2.9%,2.0,-13.1
CC(C)NC(=O)N(C)C[C@@H]1Oc2ncc(-c3cccc(C#N)c3)cc2C(=O)N([C@H](C)CO)C[C@@H]1C,.,.,-25.2%,.,-0.2%,.,2.0
CCCCNC(=O)c1onc(CSc2ccc(Cl)cc2)c1C(=O)NCCCC,.,.,16.6%,-23.3%,-2.4%,.,-3.5
Cc1noc(C)c1NC(=O)N(C)C[C@H]1Oc2ccc(NC(=O)c3ccncc3)cc2C(=O)N([C@H](C)CO)C[C@@H]1C,.,.,.,4.3%,1.1%,.,7.5
Cc1ccc(Nc2cc(=O)n(C)c(=O)[nH]2)cc1C,.,.,14.7%,.,-1.7%,.,-3.8
C[n+]1ccc(/C=C/c2ccccc2O)c2ccccc21,-5.6%,-3.1,-3.0%[15.4 µM],?,.,8.9,-15.1
Cc1ccc2nc(N/N=C\c3ccc([N+](=O)[O-])o3)nc(-c3ccccc3)c2c1,-0.8%,?,-23.0%,-3.3%[15.4 µM],1.3%,-15.8,-11.9

# A draw from above in order of count of non-hydrogen atoms, low to high:
SMILES,Sfp inh,Menin MLL FP FL,gsp ag,gsp antag,ClpP mod,TRPV1 PAM,D2 PAM
Cc1ccc2nc(N/N=C\c3ccc([N+](=O)[O-])o3)nc(-c3ccccc3)c2c1,-0.8%,?,-23.0%,-3.3%[15.4 µM],1.3%,-15.8,-11.9
COc1ccc(CN(C(=O)CCC(=O)N2CCCCC2)c2nccs2)cc1OC,0.9%,-3.7,?,-4.8%,.,-10.6,-4.3
Cc1ccc(S(=O)(=O)N2CCN(C(=O)COC(=O)CCOc3ccccc3C)CC2)c(C)c1,.,.,-5.1%,1.1%,-2.9%,2.0,-13.1

# An excerpt of these results, with two lines to a compound.
# Second line of a record: Sfp inh, Menin MLL FP FL, gsp ag, gsp antag, ClpP mod, TRPV1 PAM, D2 PAM
CCCCNC(=O)c1onc(CSc2ccc(Cl)cc2)c1C(=O)NCCCC
→ ., ., 16.6%, -23.3%, -2.4%, ., -3.5
Cc1noc(C)c1NC(=O)N(C)C[C@H]1Oc2ccc(NC(=O)c3ccncc3)cc2C(=O)N([C@H](C)CO)C[C@@H]1C
→ ., ., ., 4.3%, 1.1%, ., 7.5

# Next compounds follow:
SMILES,Sfp inh,Menin MLL FP FL,gsp ag,gsp antag,ClpP mod,TRPV1 PAM,D2 PAM
COc1ccc(-n2nc([N+](=O)[O-])c(=NC3CCN(Cc4ccccc4)CC3)n2O)cc1,4.2%,6.5,-24.8%,-5.5%,.,6.9,15.7
O=C(NCCO)/C(=C/c1ccc(Br)cc1)NC(=O)c1cccs1,16.5%,0.6,-17.6%,13.5%,0.7%,1.2,3.3
Nc1nc2cc(S(=O)(=O)NC3=NCCCCC3)ccc2s1,?,-2.7,-16.6%,-0.6%,-3.1%,-3.8,-15.8
Cc1cc(=O)oc2c(CN(C)Cc3ccccc3)c(O)ccc12,-10.6%,3.4,40.7%,2.9%,-27.4%,-3.6,-25.5
CCOC(=O)C1(c2ccccc2)CCCNC1=O (stereo unspecified),.,.,5.6%,.,-2.5%,.,-16.2
CC1CN(C2=NC(=O)/C(=C/c3ccncc3)S2)CC(C)O1 (stereo unspecified),7.9%,2.8,-9.3%[15.4 µM],-17.7%,.,-2.4,-6.4
COc1ccc(NC(=O)CN(C)C(=O)CCC(=O)c2ccc(C)cc2)cc1,.,.,-1.6%,-9.8%,-0.5%,6.1,-19.9
CCOC(=O)c1c(N)nn(C(C)=O)c1-c1ccccc1,-3.8%,1.6,-23.5%,2.7%,1.9%,-6.8,-20.0
O=C(Cn1cccc1C(=O)c1ccccc1)NCCN1CCCCCC1,7.6%,7.3,-10.1%,8.4%,-2.7%,-1.0,-29.1
CC(=O)N1N=C(N)SC12CCCC2,13.9%,-0.7,-7.3%[15.4 µM],17.7%,.,-2.5,1.8
CC1=CC(C)(C)Nc2ccc(OS(=O)(=O)c3ccc(C)cc3)cc21,-5.6%,3.9,4.0%,-15.8%,0.1%,-1.9,-4.4
CC(NC(=O)c1ccc([N+](=O)[O-])cc1[N+](=O)[O-])c1ccc(-c2ccccc2)cc1 (stereo unspecified),-57.9%,4.6,4.1%,-2.5%,-9.5%,-1.1,?
O=C(NCCc1ccc(Cl)cc1)c1n[nH]c2ccccc12,8.3%,-0.9,-0.6%,-12.3%,-7.3%,2.6,-6.6
COc1ccc(CCNS(=O)(=O)c2ccc(S(=O)(=O)N3CCCC3)cc2)cc1OC,7.8%,3.9,-17.9%,-24.4%,0.3%,18.4,0.9
S=c1[nH]nc(-c2ccncc2)n1Cc1ccco1,14.1µM*,-0.9,40.3%,5.0%,-0.8%,-6.0,1.9
CCn1ncc(CN2CCC(C(=O)Nc3cccc(-c4cccc(F)c4)c3)CC2)c1C,-2.6%,.,?,-2.5%,-1.2%,?,-5.0
O=C(NCCN1CCOCC1)c1cc(-c2ccc(Cl)c(Cl)c2)on1,4.1%,-4.5,2.1%[15.4 µM],0.3%,.,12.2,-2.6
O=C(OCc1c(-c2ccccc2)ncc2ccccc12)c1ccc(F)cc1,.,.,-5.0%,-8.1%,-21.2%,.,-3.8
CCn1c(SCc2ccccc2)nnc1-c1ccc(S(=O)(=O)N2CCCCC2)cc1,-13.3%,2.0,0.0%,?,-10.4%,-23.3,7.9
COC(=O)c1cccc([N+](=O)[O-])c1CS(=O)(=O)c1ccc(C)cc1,23.9%,-3.3,19.4%[15.4 µM],-34.6%,-0.1%,-5.7,-6.0
O=C(Nc1ccnn1C1CCN(C2CCC2)CC1)c1ccccc1Cl,6.0%,0.5,14.9%[15.4 µM],-3.1%,.,4.7,-0.4
Cc1nn(-c2ccccc2)c2c1cc1c(=O)n(C)c(=O)nc-1n2-c1ccccc1F,3.8%,2.3,29.4%,?,.,?,-2.4
COc1ccc(S(=O)(=O)N2CCCCC2)cc1NC(=O)c1ccc2ccccc2n1,9.8%,2.7,-0.3%[15.4 µM],1.9%,?,-4.0,-9.5
COc1ccc(NC(=O)c2c(-c3c(Cl)cccc3Cl)noc2C)cn1,7.0%,.,-25.5%,-7.8%,0.9%,7.0,-21.8
COC(=O)c1sc2nc3c(cc2c1N)C(=O)CC(C)(C)C3,17.6%,5.0,4.2%,-5.8%,0.9%,-7.2,-27.9
Nc1nnc(SCC(=O)Nc2cccc(S(N)(=O)=O)c2)s1,3.5%,-2.6,10.0%,1.9%,.,3.3,0.1
CC(=NNC(=O)c1cccs1)c1ccc2c(c1)OCCO2,.,.,7.6%,-2.8%,13.0%,.,0.1
O=C1/C(=C/c2ccc3c(c2)OCO3)Oc2cc(OCC(=O)N3CC(O)C[C@H]3C(=O)O)ccc21 (stereo partly specified),2.6%,16.9,.,1.1%,-1.1%,-10.5,-12.9
Cc1nc2ccccn2c1C(=O)NN=C1CCCC1,-16.0%,0.0,4.8%,0.2%,0.5%,-10.6,-3.0
O=C(NCCOc1ccccc1)C1CCC(=O)N(CCN2CCOCC2)C1 (stereo unspecified),13.8%,-2.2,?,8.8%,-0.8%,-10.5,-5.0
CN(c1ccc(F)cc1)S(=O)(=O)c1ccc(Cl)c(C(=O)NCC(c2ccco2)N2CCCCC2)c1 (stereo unspecified),.,.,5.1%,-13.6%,-0.3%,2.2,-1.2
COc1ccc(OC)c(NC(=O)COC(=O)c2ccc(S(=O)(=O)N3CCOCC3)cc2)c1,11.4%,-4.8,-11.7%,-8.6%,-0.3%,-10.9,3.7
COc1ccccc1NC(=O)CC(=O)c1cccc([N+](=O)[O-])c1,15.2%,-2.3,7.3%[15.4 µM],-3.5%,-0.7%,-0.3,-9.1
CSCSC1=C(C#N)C(c2ccc(Cl)cc2)C(C(C)=O)=C(C)N1 (stereo unspecified),10µM*,-1.1,.,.,.,-6.0,.
Cc1c(C(=O)Nc2ccc(F)cc2)cn2c(nc3ccccc32)c1C#N,-1.5%,3.4,2.6%[15.4 µM],10.6%,.,0.3,-3.4
N#Cc1c2c(c[nH]c1=O)CCN2Cc1ccccc1,9.4%,2.1,28.8%,-5.2%,?,-0.1,-9.8
Cc1cc(SC(C)C(=O)NCC(=O)Nc2ccc(F)c(F)c2F)nc2ccccc12 (stereo unspecified),7.2%,6.5,?,14.4%,-4.0%,9.8,-4.8
CCN1CCN(CC#CCOc2ccccc2OC)CC1,?,3.1,-1.2%[15.4 µM],4.3%,-1.9%,1.8,-10.3
Cc1ccc(CN=c2c([N+](=O)[O-])nn(-c3cccc(C)c3)n2O)cc1,10.9%,0.0,-14.6%,5.0%,2.9%,4.9,23.0
O=C1CCCN1CCC1CCN(C2CC(=O)N(Cc3ccc(N4CCCC4=O)cc3)C2=O)CC1 (stereo unspecified),8.8%,5.7,-19.7%,-0.6%,1.4%,-15.4,-2.5
CCOC(=O)Cn1c(=O)oc2cc(S(=O)(=O)Nc3cc(Cl)ccc3OC)ccc21,-5.4%,7.9,15.5%,0.4%,-1.2%,4.7,0.8
O=S(=O)(c1ccccc1)N1CCN(c2ncnc3scc(-c4ccccc4)c23)CC1,9.4%,12.6,-82.5%[inhibitor],-19.1%,.,12.8,-0.1

# Source: PubChem (National Center for Advancing Translational Sciences (NCATS))
